UCH37 inh = human UCH37 deubiquitinating enzyme inhibition; 330,000 compounds, 0.33% hits; inhibition, % (no concentration beside the values); AID 588478; purified proteasome/UCH37, Ub-AMC cleavage fluorescence;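 active = mean of two replicates above 20%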;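 also: 0% = compound-free wells with enzyme and 100% = wells lacking proteasome; stock transfer was 100 nL into about 20 µL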
Target sequence (Q9Y5K5 whole entry, looked up): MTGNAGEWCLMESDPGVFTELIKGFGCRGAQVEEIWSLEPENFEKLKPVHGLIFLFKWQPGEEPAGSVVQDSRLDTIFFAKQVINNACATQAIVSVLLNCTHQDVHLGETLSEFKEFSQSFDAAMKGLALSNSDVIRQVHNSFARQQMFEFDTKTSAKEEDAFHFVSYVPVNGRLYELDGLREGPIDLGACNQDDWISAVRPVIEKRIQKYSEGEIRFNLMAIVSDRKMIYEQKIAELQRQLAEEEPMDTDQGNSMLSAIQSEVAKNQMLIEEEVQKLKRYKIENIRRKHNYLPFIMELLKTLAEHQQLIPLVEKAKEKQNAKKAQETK
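Signal – fluorescence, ex 355 nm, em 460 nm · System – Proteasome-bound UCH37 · Input – 0.15 nM proteasome as dispensed · Timing – 30 min preincubation with enzyme, 25 min cleavage at room temperature · Read-out basis – percent inhibition of cleavage signal versus uninhibited and no-proteasome wells · Medium – Tris-HCl pH 7.4 with ATP-MgCl2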
Beta2AR agonist = agonists of human beta-2 adrenergic receptor inducing internalization; Am2.2-beta2AR cells, FAP receptor internalization, flow cytometry; reference of the scale not given here; P07550; response, % (test concentration not listed); 340,000 compounds, 0.43% hits;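 active = response above a set limit, near 3 SD of response in nonfluorescent compounds, cut at about 42% in these data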;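 also: stock transfer was 100 nL into about 11 µL; a reference agonist was the positive control; negative values mostly stem from fluorescent compounds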
Target sequence (P07550 whole entry, looked up): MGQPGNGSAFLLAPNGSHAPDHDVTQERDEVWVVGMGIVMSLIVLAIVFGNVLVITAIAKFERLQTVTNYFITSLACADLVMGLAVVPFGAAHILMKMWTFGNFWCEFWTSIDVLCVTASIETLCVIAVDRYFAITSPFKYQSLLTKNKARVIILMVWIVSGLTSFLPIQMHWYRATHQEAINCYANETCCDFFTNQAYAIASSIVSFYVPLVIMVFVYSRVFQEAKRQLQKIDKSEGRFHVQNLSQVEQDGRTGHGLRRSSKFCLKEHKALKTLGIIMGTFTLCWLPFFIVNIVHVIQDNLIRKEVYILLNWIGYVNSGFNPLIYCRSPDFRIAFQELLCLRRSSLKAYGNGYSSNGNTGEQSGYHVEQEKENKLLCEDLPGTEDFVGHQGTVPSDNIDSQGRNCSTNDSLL
The depositor's hits bear a star. The list is partial; the hit share may differ from the screen's.

Structure	UCH37 inh	Beta2AR agonist
CC(=O)Nc1cc2c(cc1[N+](=O)[O-])-c1ccccc1C2O (stereo not given)	10.0	-3.0
Clc1ccc(-c2ccnc3nc(N4CCOCC4)nn23)c(Cl)c1	-9.5	3.7
O=C(CCNC(=O)c1ccc(Br)cc1)Nc1ccc(S(=O)(=O)N2CCCCC2)cc1	1.0	-0.2
C(=Cc1cnnc2ccccc12)c1ccccc1	8.6	-10.9
O=C(Nc1ccc(S(=O)(=O)NC2=NCCCCC2)cc1)c1cc(F)c(F)cc1Cl	4.0	6.2
O=C(OCC(=O)N1CCCCCC1)c1cnc(Cl)c(Cl)c1	0.6	0.3
OCCCNc1ncnc2[nH]ncc12	-11.9	1.3
CC(O)c1cc2c(s1)c1cnn(Cc3ccccc3F)c(=O)c1n2C (stereo not given)	2.4	0.9
CC(C)(C)S(=O)(=O)N1C[C@@H]2CC/C=C\C/C(c3ccccc3)=C\2[C@H]1CCO	20.5*	-2.7
O=C(O)C(Cc1ccc(OS(=O)(=O)Cc2ccccc2)cc1)NS(=O)(=O)Cc1ccccc1 (stereo not given)	1.6	9.1
O=c1cc(SCc2ccccc2)nc[nH]1	-0.2	-7.7
O=C(Cc1ccc(NC(=O)C2CCCN(C(=O)C3CC3)C2)cc1)Nc1ccc(C(=O)N2CCOCC2)cc1 (stereo not given)	4.3	-2.2
COc1ccc(NC(=O)CN(C)C(=O)c2ccc(C)c(S(=O)(=O)N3CCCCC3)c2)cc1	3.6	6.5
CCN1C[C@@H]2[C@@H]3C(=O)N(Cc4ccccc4)C(=O)[C@@H]3[C@](CC)(C1=O)N2C(=O)c1ccc(Cl)c(Cl)c1	4.7	-3.0
Cn1c(N)c(C(=O)CSc2n[nH]c(N)n2)c(=O)n(C)c1=O	2.8	8.7
C[C@H]1CN(S(=O)C(C)(C)C)[C@H](CCO)/C1=C\CCO (stereo not given in full)	-2.4	-5.3
O=C(Cc1ccc(NC(=O)C2CCN(C(=O)C3CCC3)CC2)cc1)Nc1cccc(C(=O)N2CCCCC2)c1	0.2	-2.6
O=C(CN1CCN(C(=O)c2cccc(S(=O)(=O)N3CCCC3)c2)CC1)Nc1cccc(F)c1	3.1	-4.2
CCCN(CC(=O)Nc1ccccc1C)C(=O)c1ccc(OCC(=O)N2CCOCC2)c(OCC)c1	3.7	0.7
Cc1cc(C)nc(NNS(=O)(=O)c2c(C)cc(C(C)(C)C)cc2C)n1	2.2	1.0

Among those listed so far, these have fluorine.
Structure	UCH37 inh	Beta2AR agonist
O=C(Nc1ccc(S(=O)(=O)NC2=NCCCCC2)cc1)c1cc(F)c(F)cc1Cl	4.0	6.2
CC(O)c1cc2c(s1)c1cnn(Cc3ccccc3F)c(=O)c1n2C (stereo not given)	2.4	0.9
O=C(CN1CCN(C(=O)c2cccc(S(=O)(=O)N3CCCC3)c2)CC1)Nc1cccc(F)c1	3.1	-4.2

The listing picks up, repeating the 3 entries before the break.
Structure	UCH37 inh	Beta2AR agonist
O=C(CN1CCN(C(=O)c2cccc(S(=O)(=O)N3CCCC3)c2)CC1)Nc1cccc(F)c1	3.1	-4.2
CCCN(CC(=O)Nc1ccccc1C)C(=O)c1ccc(OCC(=O)N2CCOCC2)c(OCC)c1	3.7	0.7
Cc1cc(C)nc(NNS(=O)(=O)c2c(C)cc(C(C)(C)C)cc2C)n1	2.2	1.0
O=C1C(=O)N(c2ccccc2)C(c2ccccc2)C1c1ccccc1 (stereo not given)	-19.2	2.7
CN(C(=O)CCl)C1CCCc2ccccc21 (stereo not given)	4.6	15.0
Cc1cccc(OCC(=O)NCC(c2ccco2)N2CCCC2)c1 (stereo not given)	-1.2	7.0
CCCN(CC(=O)Nc1ccccc1OC)CC(=O)c1c(N)n(Cc2ccccc2)c(=O)n(C)c1=O	1.1	5.6
c1ccc(COC2COC3C(OCc4ccccc4)COC23)cc1 (stereo not given)	1.2	4.3
Cc1noc(C)c1S(=O)(=O)N(C)C[C@H]1Oc2c(NS(=O)(=O)c3cn(C)cn3)cccc2C(=O)N([C@H](C)CO)C[C@@H]1C	1.1	-1.4
Cc1nc(Cc2nnc(SCC(=O)N3CCN(c4ccc(O)cc4)CC3)o2)cs1	2.7	3.7
O=C(NN(C(=O)c1ccccc1)c1cccs1)c1ccccc1	3.3	0.8
CCOC(=O)Nc1c(Cl)[nH]c(=O)n(C)c1=O	0.8	3.1
CC1(c2cccc(Br)c2)NC(=O)N(CC(=O)NC2CCCCC2)C1=O (stereo not given)	3.7	0.2
COC(=O)C/C=C/N(Cc1ccccc1OC)S(=O)(=O)CCl	3.0	1.1
COc1ccc(N2CCCn3c2nc2c3c(=O)n(Cc3ccc(F)cc3)c(=O)n2C)c(OC)c1	1.3	-0.1
COc1ccc(OCCCC(=O)OCC(=O)Nc2ncc(Cl)cc2Cl)cc1	-0.3	5.5
O=C(NCC(c1ccco1)N1CCCC1)c1cn(-c2ccccc2)nc1-c1ccc(F)cc1 (stereo not given)	5.3	1.6
CCCc1cc2c(cc1N(C)S(=O)(=O)c1ccccc1)OCO2	0.9	17.2
CCN(C[C@H]1N[C@@](Cc2ccccc2)(C(=O)OC)[C@H]2C(=O)N(Cc3ccccc3)C(=O)[C@@H]12)C(=O)C1CCCCC1	6.4	0.8
O=C(COC(=O)CNS(=O)(=O)c1cccc(F)c1)NCCc1ccccc1	1.6	-2.3
O=C1c2ccccc2C(=O)N1CCC(=O)N1CCc2ccccc21	5.3	-4.3
O=C(Nc1ccc2c(c1)OCCO2)c1ccc(Br)c(S(=O)(=O)N2CCOCC2)c1	-0.3	32.1
Nc1nc2c(ncn2-c2ccccc2)c(=O)[nH]1	2.1	-3.1
CCC1(C)COC(c2ccc3c(c2)OCO3)OC1 (stereo not given)	0.9	1.4
CCN(C(=O)COC(=O)CCOc1cccc(C)c1)c1c(N)n(Cc2ccccc2)c(=O)[nH]c1=O	2.3	-3.0
CC(=O)N(c1ccccc1C)c1ccccc1C	0.3	3.7
Cc1cc(C(=O)COC(=O)/C=C/c2cccc(Br)c2)c(C)n1C	-1.0	-7.1
Cc1ccc2c(c1)C1CN(C)CCC1N2S(=O)(=O)c1ccc(C(C)C)cc1 (stereo not given)	-3.0	0.8
CC(Nc1ccc(S(=O)(=O)N2CCN(C)CC2)cc1[N+](=O)[O-])c1ccccc1 (stereo not given)	0.1	-0.3
CC(C)N(C(=O)[C@H]1C[C@H](CC(=O)NCc2cccc(C(F)(F)F)c2)C(=O)N2CCc3c([nH]c4ccc(Cl)cc34)[C@]12C)C(C)C	-2.6	3.0
CN(Cc1ccccc1)C(=O)c1ccc(NC(=O)Cc2ccc(NC(=O)C3CCN(C(=O)CCc4ccccc4)CC3)cc2)cc1	1.6	-5.4
Cc1ccc(C(=O)Nc2ncccc2C)o1	0.0	-0.8
O=C(CN1C(=O)c2ccccc2S1(=O)=O)Nc1cc(S(=O)(=O)N2CCCCC2)ccc1Cl	0.2	3.8
CC(Oc1ccc(F)cc1)c1nnc(SCC(=O)N(c2ccccc2)C2CCS(=O)(=O)C2)o1 (stereo not given)	1.0	4.5
Cc1ccc(NC(=O)CN2C(=O)N/C(=C/c3cc(C)n(-c4cccc(C(=O)O)c4)c3C)C2=O)cc1	3.5	-3.6
CCOC(=O)C1CCCN(C(=O)c2cc3ccccc3cc2OC)C1 (stereo not given)	-1.2	5.8
O=C1CC(c2ccccc2)=C(c2ccccc2)C1	0.5	-1.0
CCNC1(C(N)=O)CCN(Cc2ccccc2)CC1	2.3	-1.9
Cc1cc(NC(=O)CSc2nc3[nH]c(=O)cc(O)c3s2)ccc1Br	7.5	-5.2
COc1ccc(C(C)(C)C)cc1NC(=O)COC(=O)CSCc1c(C)noc1C	0.1	-15.9
O=C(Nc1cccc(Cl)c1)OCCOC(=O)Nc1cccc(Cl)c1	3.0	0.1
CCOC(=O)C1=CN(CC2CCCCC2)CCC1=O	2.5	2.3
O=Cc1c[nH]c2ccc(NC(=O)OCc3ccccc3)cc12	2.2	6.9

The list continues:
Values in the order – UCH37 inh, Beta2AR agonist
O=C(O)Cc1cc(=O)[nH]n(-c2ccccc2)c1=O
→ 5.3, 1.7
COc1ccc(C(=O)OCC(=O)N2CCN(S(=O)(=O)c3ccc(C)cc3)CC2)cc1[N+](=O)[O-]
→ 2.6, -3.3
COc1ccc(NC(=O)CN(C)C(=O)CCSc2ccc(F)cc2)cc1
→ 4.0, 11.2
CC1CC(C)CN(C(=O)COC(=O)c2ccc(Cl)nc2)C1 (stereo not given)
→ 1.5, 5.3
OCC1OC(n2cnc3c(=S)nc[nH]c32)CC1O (stereo not given)
→ 2.1, 2.6
COc1ccccc1CN(C)C(=O)COC(=O)c1cc(C)oc1C
→ 0.1, -9.2
CC12CCC(C(=O)N(c3nccs3)C1=O)C2(C)C (stereo not given)
→ 1.5, -5.8
O=C(NNC(=O)c1cccc2ccccc12)c1cccc(Cl)c1
→ -1.2, -2.6
Cc1cc(C)c2c(c1)CC(C)(C)CC2=O
→ 1.0, 2.8
C[C@@H](N)C(=O)NC[C@H]1O[C@@H](n2cnc3c(N)ncnc32)[C@H](O)[C@@H]1O
→ 0.1, -2.3
CC[C@]12c3[nH]c4cc(CCC(=O)N(C)C)ccc4c3CCN1C(=O)[C@@H](CC(=O)NCC13CC4CC(CC(C4)C1)C3)C[C@@H]2C(=O)N1CCN(C(=O)C2CC2)CC1
→ 1.4, -10.2
CN(CC(=O)Nc1sccc1C#N)S(=O)(=O)c1ccc(F)cc1
→ 0.8, 10.2
C[C@H](CO)N1C[C@H](C)[C@@H](CN(C)C(=O)Nc2ccccc2)Oc2ccc(NC(=O)c3ccncc3)cc2C1=O
→ 4.6, -11.6
COCCN(C(=O)COC(=O)C12CC3CC(CC(C3)C1)C2)c1c(N)n(Cc2ccccc2)c(=O)[nH]c1=O
→ 2.5, -8.0
CCCCN(C(=O)c1ccc(NC2CC2)c([N+](=O)[O-])c1)c1c(N)n(CCCC)c(=O)[nH]c1=O
→ 2.2, 0.8
CCCCCOc1ccc(C(=O)CCC(=O)NNC(=O)c2ccncc2)cc1
→ 4.0, -0.8
Cc1ccc(NC(=O)CN(C)C(=O)c2cn(Cc3ccccc3)nc2-c2cccnc2)cc1
→ 2.1, -1.1
Oc1ccccc1C=NN1CCCCCC1
→ -0.1, 1.0
Cn1c2cc(Br)sc2c2cnn(Cc3ccc(F)cc3F)c(=O)c21
→ 0.6, 9.8
O=CN1CCN(C=O)C(O)C1O (stereo not given)
→ -0.5, 4.2
Cc1ccc(S(=O)(=O)Oc2ccccc2-c2ccccc2)cc1
→ 2.8, -5.0
O=C1OC(CN(Cc2ccccc2)Cc2ccccc2)CN1N=Cc1ccc([N+](=O)[O-])o1 (stereo not given)
→ 7.4, -4.3
CCOC(=O)C1=CN(CC)S(=O)(=O)NC1c1ccccc1 (stereo not given)
→ 0.5, -0.1
O=c1[nH]c(=S)[nH]c2nccnc12
→ 5.8, 7.3
COc1ccccc1NC(=O)COC(=O)CCC(=O)c1cccs1
→ -0.6, -5.4
Cn1c(N)c(C(=O)COC(=O)COc2ccccc2Cl)c(=O)n(C)c1=O
→ 0.5, -1.2
CC(=O)Nc1c(Cl)c(Cl)c2c(c1Cl)Cc1cc(Cl)ccc1-2
→ 2.0, -10.6
Nc1ccc(S(=O)(=O)c2ccc(NC(=O)c3cccnc3)cc2)cc1
→ 1.7, -2.6
O=C(CN1CCN(C(=O)c2ccccc2Cl)CC1)Nc1cccc(S(=O)(=O)N2CCCC2)c1
→ 4.0, 11.6
Cc1cccc(C)c1NC(=O)CN1CCN(C(=O)C2CCC2)CC1
→ 0.5, 2.0
O=C(NC1CCCCC1)c1cc(S(=O)(=O)N2CCN(c3ccccc3)CC2)ccc1Cl
→ 0.4, 4.4
COC(=O)[C@]1(Cc2ccccc2)N[C@H](CN(C)C(=O)Nc2ccccc2)[C@@H]2C(=O)N(Cc3ccccc3)C(=O)[C@@H]21
→ 2.4, -4.2
CCOC(=O)N1CCN(C(=O)CSc2nnc(-c3cc(OC)ccc3OC)o2)CC1
→ 5.4, -2.3
C=CCC[C@@H](Cc1ccc(F)cc1)C(=O)O[C@H](CNC(=O)[C@@H](CC=C)CC(=O)N[C@H](CO)Cc1ccccc1)c1ccccc1
→ -1.3, 5.1
CCCn1c(N)c(C(=O)COC(=O)CNC(=O)c2ccc(C)c(C)c2)c(=O)n(C)c1=O
→ 1.1, -0.2
COCCN(C(=O)c1ccc2c(c1)C(=O)N(c1ccccc1Cl)C2=O)c1c(N)n(CC(C)C)c(=O)[nH]c1=O
→ 4.5, -0.1
CC(=NNC(=O)c1ccncc1)c1cc(Cl)ccc1Cl
→ 1.6, -2.8
O=C1NC(=O)C2(CCCCCCC2)N1
→ 0.9, 3.2
O=S(=O)(Nc1ccc(-n2cnnn2)cc1)c1ccc(Cl)s1
→ 1.0, 1.3
Cc1cccc(N=NC(=S)NNc2cccc(C)c2)c1
→ 4.2, -4.4
CN(C(=O)c1ccc(NC(=O)Cc2cccc(NC(=O)C3CCCN(C(=O)C4CC4)C3)c2)cc1)C1CC1 (stereo not given)
→ -0.1, -0.1
CCOc1ccc(C(C)NC(=O)c2ccc3c(c2)NC(=O)C(C)S3)cc1OCC (stereo not given)
→ 2.2, 9.7
O=C(C=Cc1ccccc1)CC(c1ccccc1)N1CCOCC1 (stereo not given)
→ 0.1, 5.0
COc1ccc2c(c1C)CCC(C)(C#N)C2=O (stereo not given)
→ 0.9, -1.2
CCOC(=O)c1ccc[n+]([O-])c1
→ 4.9, -5.4
CCOC(=O)Cc1csc(SCC(=O)NC2CCCC2)n1
→ 1.6, 9.8
CCOC(=O)C1OC1(c1ccccc1)c1ccccc1 (stereo not given)
→ 3.3, 8.6

Compound activity as filed in PubChem BioAssay.
